# Assay outcomes deposited in PubChem by National Center for Advancing Translational Sciences (NCATS).
# GAA spleen mod = inhibits or activates alpha-glucosidase in human spleen homogenate | P10253 | human spleen homogenate, 4-MU-alpha-glucoside fluorescence | Potency, µM (series often up to 79.9 µM), inactives show at the top dose activity change, negative = inhibition, actives largely listed as inhibitors | hit rate 0.006% among 240,000;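 also: 0% = enzyme with vehicle and -100% = no enzyme basal signal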
#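 Human spleen homogenate (1 ug) with 4-methylumbelliferyl-alpha-D-glucopyranoside (1 mM final) in 50 mM citrate/phosphate pH 5.0, 0.01% Tween-20; 40 min at 37 C. Stopped at pH 10; 4-MU fluorescence Ex 365/Em 440 nm; AC50 by Hill fit.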
# GAA glycogen mod = alters human alpha-glucosidase cleavage of glycogen | P10253 | recombinant GAA, glycogen substrate, Amplex Red glucose oxidase fluorescence | Potency, µM (doses to about 76.4 µM), inactives show top-dose activity change, negative = inhibition, usual class: inhibitors | hit rate 0.38% among 300,000 | AID 2100;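 also: 0% = full enzyme reaction and -100% = no-enzyme basal signal; the screen sought inhibitors and activators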
#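 Recombinant enzyme (4 nM final) with compounds titrated up to 77 uM and bovine liver glycogen (30 ug) in citrate pH 5.0, 0.01% Tween-20, 37 C 40 min. Released glucose detected by Amplex Red/glucose oxidase (Ex 573/Em 610); AC50 from Hill fits.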
# Lamin A splicing = changes lamin A minigene splicing in HeLa cells; HeLa LMNA splicing GFP/RFP minigene ratio, 48 h; Potency, µM (series often up to 46.1 µM), without a hit: at the highest dose ratio change, negative = inhibition, most hits filed as inhibitors; hit rate 0.01% among 200,000; active = well fitted inhibition curve with a large enough effect in the signal ratio, with a control signal flat, not every such curve was filed as active; inconclusive = small, poorly fitted or top-dose-only effect, or effect the other way, or a change in a side signal; the % refers to the signal ratio
#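 S3 HeLa stable clones carrying a lamin A-EGFP splicing minigene plus DsRed2 were seeded at 600 cells/well in Opti-MEM with 2% FBS, pin-dosed and incubated 48 h at 37°C. Acumen cytometry (488 nm) gave the GFP/RFP total-intensity ratio.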
# GAA inhib = alpha-glucosidase (human) inhibition; P10253; purified human GAA, 4-MU-alpha-glucoside fluorescence; Potency, µM (series often up to 76.9 µM), for inactives: top-dose activity change, negative = inhibition, hits mostly inhibitors; hit rate 0.005% among 200,000; AID 1466;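 also: plate controls were uninhibited enzyme wells for no effect and no-enzyme background for full effect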
#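 Activity normalized between no-enzyme (basal) and enzyme-only wells. Conditions: 4 nM human enzyme, 400 uM fluorogenic substrate, citrate/phosphate pH 5.0 with Tween-20, 20 min room temperature, compounds up to 77 uM.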
# Starred values were filed as active, the others as inactive; ? = inconclusive; . = not tested or not shown; & = joins results of further samples; [ ] = remark or other dose. Unless noted, calls follow the shape of the dose curve; as a rule, active = well fitted curve in the direction sought with a large enough effect; inconclusive = small, poorly fitted or top-dose-only effect, or another doubt; inactive = no such curve, though single readings can be large; an effect the other way counts as inactive or inconclusive. Unless noted, % is scaled to controls: 0 for no effect and ±100 for the full control effect; potency is read from the fitted curve at half-maximal effect. An excerpt (hit frequency here may not be typical).
SMILES,GAA spleen mod,GAA glycogen mod,Lamin A splicing,GAA inhib
NC1=NC(=O)C(c2ccccc2)O1 (stereo unspecified),-1.4%,6.2%,.,-10.2%[15.4 µM]
COC(=O)C1=CCCN(C)C1,-0.4%,6.8%,?,3.6%
Oc1cc(Cl)c(Cl)c(Cl)c1Cl,-3.4%,.,.,.
C[C@]12CCC3=C4CCC(=O)C=C4CC[C@H]3C1CC[C@@H]2O (stereo partly specified),.,1.7%,.,.
CCSC(=O)N1CCCCCC1,4.6%,.,.,.
O=c1[nH]c2c(c(=O)n1C1CCCCC1)CCC2,-5.2%,1.7%,-1.6%,-11.8%
CCOC(=O)c1ccccc1C(=O)OCC,8.2%&-9.0%,.,-13.9%,.
CC(O)(CS(=O)(=O)c1ccc(F)cc1)C(=O)Nc1ccc(C#N)c(C(F)(F)F)c1 (stereo unspecified),1.1%,-3.5%,.,-4.8%[15.4 µM]
COc1cc2c(c(OC)c1OC)-c1ccc(OC)c(=O)cc1[C@@H](NC(C)=O)CC2,-9.3%&-1.7%&-11.1%&5.2%&-9.0%,-6.4%[76.3 µM],?,.
CC1OC(OC2C(O)CC(OC3C(O)CC(OC4CCC5(C)C(CCC6C5CCC5(C)C(C7=CC(=O)OC7)CCC65O)C4)OC3C)OC2C)CC(O)C1O (stereo unspecified),-3.4%,.,?,.
CC1OC(O[C@H]2C[C@@H](O)[C@]3(CO)[C@@H]4C(CC[C@]3(O)C2)[C@@]2(O)CC[C@H](C3=CC(=O)OC3)[C@@]2(C)C[C@H]4O)C(O)C(O)C1O (stereo partly specified),-11.3%,.,?,.
CN[C@@H](C)[C@H]1CC[C@@H](N)[C@@H](O[C@@H]2[C@@H](O)[C@@H](O[C@H]3OC[C@@](C)(O)[C@@H](NC)[C@@H]3O)[C@H](N)C[C@@H]2N)O1 (tested in a mixture with another compound),0.6%[29.1 µM],.,?,.

# Reprinted at random: four entries already listed.
SMILES,GAA spleen mod,GAA glycogen mod,Lamin A splicing,GAA inhib
CCSC(=O)N1CCCCCC1,4.6%,.,.,.
COc1cc2c(c(OC)c1OC)-c1ccc(OC)c(=O)cc1[C@@H](NC(C)=O)CC2,-9.3%&-1.7%&-11.1%&5.2%&-9.0%,-6.4%[76.3 µM],?,.
C[C@]12CCC3=C4CCC(=O)C=C4CC[C@H]3C1CC[C@@H]2O (stereo partly specified),.,1.7%,.,.
NC1=NC(=O)C(c2ccccc2)O1 (stereo unspecified),-1.4%,6.2%,.,-10.2%[15.4 µM]

# Going on with the list:
SMILES,GAA spleen mod,GAA glycogen mod,Lamin A splicing,GAA inhib
COC(C)(C)C,-3.1%,.,.,.
CC(C)(O)[C@@H]1C2OC(=O)[C@@H]1[C@]1(O)C[C@H]3O[C@]34C(=O)O[C@H]2[C@]14C,1.8%,.,.,.
CC(C)(O)[C@@H]1[C@H]2OC(=O)[C@@H]1[C@]1(O)C[C@H]3O[C@]34C(=O)O[C@H]2[C@@]14C (tested in a mixture with another compound),1.9%,.,.,.
Oc1ccc2[nH]cc(CCCCN3CC=C(c4ccccc4)CC3)c2c1,8.8%,.,.,.
C#CCN(C)C(C)Cc1ccccc1 (stereo unspecified),-3.6%&6.7%,5.8%,4.7%&0.7%,-10.9%[15.4 µM]
Clc1c(Cl)c(Cl)c(Cl)c(Cl)c1Cl,-0.6%,.,.,.
C[N+](C)(C)CCCCCCCCCC[N+](C)(C)C,-1.1%,1.4%,?,-12.1%[15.4 µM]
Cc1cc(Cl)ccc1OC(C)C(=O)O (stereo unspecified),-4.6%,2.5%,-3.8%,-1.3%[15.4 µM]
CN[C@@H](C)[C@@H](O)c1ccccc1,.,-4.6%[76.3 µM],.,.
CC1=C2C[C@H]3[C@@H](CC=C4C[C@@H](O)CC[C@@]43C)[C@@H]2CC[C@]12O[C@@H]1C[C@H](C)CN[C@H]1C2C (stereo partly specified),-4.4%,.,.,.
COc1ccc2c(c1OC)C(=O)O[C@H]2[C@H]1c2cc3c(cc2CCN1C)OCO3,-8.2%[29.1 µM],.,-2.7%,.
C[C@]12CC[C@H](O)CC1=CCC1C2CC[C@]2(C)C(=O)CC[C@@H]12 (stereo partly specified),-2.7%&-0.6%&8.8%,.,?,.
CC(C)(O)C(Cl)(Cl)Cl,-0.3%&-3.9%,.,?,.
CC(C)(C)OO,6.5%&-13.5%,.,.,.

# Molecules above that contain nitrogen in an aromatic ring, in the order listed:
SMILES,GAA spleen mod,GAA glycogen mod,Lamin A splicing,GAA inhib
O=c1[nH]c2c(c(=O)n1C1CCCCC1)CCC2,-5.2%,1.7%,-1.6%,-11.8%
Oc1ccc2[nH]cc(CCCCN3CC=C(c4ccccc4)CC3)c2c1,8.8%,.,.,.

# Part of the list above in a different format:
# Value order: GAA spleen mod, GAA glycogen mod, Lamin A splicing, GAA inhib
> COC(C)(C)C
→ -3.1%, ., ., .
> CC1=C2C[C@H]3[C@@H](CC=C4C[C@@H](O)CC[C@@]43C)[C@@H]2CC[C@]12O[C@@H]1C[C@H](C)CN[C@H]1C2C (stereo partly specified)
→ -4.4%, ., ., .
> C#CCN(C)C(C)Cc1ccccc1 (stereo unspecified)
→ -3.6%&6.7%, 5.8%, 4.7%&0.7%, -10.9%[15.4 µM]
> COc1ccc2c(c1OC)C(=O)O[C@H]2[C@H]1c2cc3c(cc2CCN1C)OCO3
→ -8.2%[29.1 µM], ., -2.7%, .

# Among those listed so far, these contain sulfur.
SMILES,GAA spleen mod,GAA glycogen mod,Lamin A splicing,GAA inhib
CCSC(=O)N1CCCCCC1,4.6%,.,.,.
CC(O)(CS(=O)(=O)c1ccc(F)cc1)C(=O)Nc1ccc(C#N)c(C(F)(F)F)c1 (stereo unspecified),1.1%,-3.5%,.,-4.8%[15.4 µM]
